Assay outcomes deposited in PubChem BioAssay by several laboratories.
Vif TR-FRET – inhibitors of Vif binding to APOBEC3G peptide, primary screen, biochemical, TR-FRET, GST-Vif 1-94, biotin-A3G peptide, dose response retest (AID 1117319) | actives 0.57% (n = 260,000) | TR-FRET GST-Vif / biotin-A3G peptide binding; higher % means a stronger effect; test concentration not given here; strong numbers were not always called active | inhibition, %; hits with a dose series show IC50 in µM;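 active = above the screen mean plus three standard deviations and confirmed in dose response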;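 note: Vif residues 1-94 fused to GST binding biotinylated APOBEC3G peptide 110-148; 0% = full assay without inhibitor and 100% = GST in place of GST-Vif; retest series ran down from 100 µM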
AF4-AF9 inh – inhibitors of human MLL-AF4/AF9 interaction | P42568 | AlphaScreen, biotin-AF4 peptide binding to FLAG-AF9 | actives 0.47% (n = 350,000) | inhibition, % at 10 µM | AID 651704;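 active = every replicate reaching a set inhibition limit, whatever the replicate mean, cut at about 25% in these data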;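 note: 0% = plate neutral control median and 100% = total signal loss; the record names both 10 and 1 µM as test concentration; the first replicate is given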
Target sequence (P42568 whole entry, looked up): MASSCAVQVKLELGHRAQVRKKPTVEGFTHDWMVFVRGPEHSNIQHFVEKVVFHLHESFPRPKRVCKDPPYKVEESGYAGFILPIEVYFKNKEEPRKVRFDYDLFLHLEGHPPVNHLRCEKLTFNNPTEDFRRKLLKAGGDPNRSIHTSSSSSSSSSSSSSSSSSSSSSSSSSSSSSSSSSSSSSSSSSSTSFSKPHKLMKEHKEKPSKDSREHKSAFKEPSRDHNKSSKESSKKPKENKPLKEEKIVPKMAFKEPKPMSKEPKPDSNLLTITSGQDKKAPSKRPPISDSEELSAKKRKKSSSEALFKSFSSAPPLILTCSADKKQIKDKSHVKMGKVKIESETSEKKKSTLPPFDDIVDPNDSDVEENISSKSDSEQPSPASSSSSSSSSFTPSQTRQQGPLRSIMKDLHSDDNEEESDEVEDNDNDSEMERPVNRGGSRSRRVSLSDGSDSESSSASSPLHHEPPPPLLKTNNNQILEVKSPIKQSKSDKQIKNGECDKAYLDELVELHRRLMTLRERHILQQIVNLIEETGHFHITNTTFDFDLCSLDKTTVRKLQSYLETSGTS
* hit, by the source's call; & = joins results of further samples.

Results follow in this order: Vif TR-FRET | AF4-AF9 inh
O=C(NCc1cccc(Cl)c1)c1ccc(S(=O)(=O)N2CCCCC2)cc1
    -2% | 0.1
Cc1ccc(S(=O)(=O)N2C[C@H]3[C@H]4C(=O)N(c5ccccc5)C(=O)[C@H]4C[C@H](OC(=O)Nc4cccs4)[C@@]3(O)C2)cc1
    1% | 0.9
COc1cc(=O)oc(CCC(C)O)c1C (centres undefined)
    -1% | -0.7
C=CCOC(=O)C(C(=O)Cc1ccccc1)c1ccccc1 (centres undefined)
    -6% | -0.8
CCOc1ccccc1C1NC(=O)c2ccccc2N1 (centres undefined)
    -6% | -8.9
COC(=O)c1cc2c(n(-c3ccccc3)c1=O)CCCC2=O
    -2% | 1.3
CCN(CC)CCCC(C)n1c2nc(=O)[nH]c(=O)c-2nc2cc(Cl)ccc21 (centres undefined)
    -6% | 0.8
COCC(=O)OCC(=O)Nc1cc([N+](=O)[O-])ccc1Cl
    14% | -2.8
O=C1C2CCCCN2C(=O)N1CCN1CCN(c2cccc(Cl)c2)CC1 (centres undefined)
    2% | 4.7
O=S(=O)(c1cccc(C(F)(F)F)c1)N1c2ccccc2-n2cccc2C1c1cccnc1 (centres undefined)
    -9% | 1.4

Next part
Results follow in this order: Vif TR-FRET | AF4-AF9 inh
Cc1cccc(-n2ncc3c2CCCC3NC(=O)c2cccs2)c1C (centres undefined)
    -4% | -1.3
CC(C)C[C@@H](CNCC(=O)[C@H](C)NC(=O)c1[nH]cnc1C(=O)N[C@H](CN)CC(C)C)NC(=O)c1nc[nH]c1C(=O)N[C@@H](C)C(=O)O
    -3% | -0.9
COc1ccccc1Cn1c(=S)[nH]c2cc(C(=O)N3CCCC(C)C3)ccc2c1=O (centres undefined)
    3% | 0.5
CSCCC(NC(=O)c1ccco1)C(=O)N(C)CC(=O)Nc1ccccc1Br (centres undefined)
    -1% | -10
O=C(OCC(=O)N1CCN(c2ccccc2)CC1)C1CCCN1S(=O)(=O)c1ccc(Cl)cc1 (centres undefined)
    -8% | 0.9
Cc1nn(-c2ccccn2)c2c1C(=O)CC(C)(C)C2N=[N+]=[N-] (centres undefined)
    -7% | -0.2
COc1cccc(NC(=O)CCC2CCN(C(=O)C(OC)c3ccccc3)CC2)c1 (centres undefined)
    -5% | 0.2
COc1ccc(CN2C(=O)C(CC(=O)NCC3CCCCC3)CC(C(=O)N3CCOCC3)=C2C)cc1 (centres undefined)
    -3% | -3.0
Cc1ccc(C(=O)N2CCCCC2)cc1NC1=C(Cl)C(=O)N(Cc2ccccc2)C1=O
    -14% | -3.2
CN(C(=O)c1cccc(NC(=O)Cc2cccc(NC(=O)C3CCN(C(=O)C4CCCCC4)CC3)c2)c1)C1CCC1
    5% | 0.5

(next part)
Results follow in this order: Vif TR-FRET | AF4-AF9 inh
Fc1ccc(-c2nnc(-c3ccc4ccccc4c3)o2)cc1
    -2% | 2.7
CC(OC(=O)CSCC(=O)Nc1ccc(Cl)cc1)C(=O)N(C)Cc1ccccc1 (centres undefined)
    0% | 1.3
Cc1ccc(S(=O)(=O)N2CCOCC2)cc1C(=O)NCCCN1CCCC1=O
    0% | 1.2
O=C(O)c1ccc(N=C2c3ccccc3-c3ccccc32)cc1
    -5% | -2.2
C=CCC1(CC=C)CC(Cc2cnccn2)N(C(=O)OC(C)(C)C)C1 (centres undefined)
    -2% | 5.6
Cc1ccc(-c2nc3ccc(Cl)cn3c2Cc2ccccc2)cc1
    -7% | -0.7
Cn1c(=O)c2[nH]c(SCCN3CCOCC3)nc2n(C)c1=S
    -6% | -1.6
CCCc1c(C)nc2scc(-c3ccc(Cl)cc3)n2c1=O
    -35% | -4.6
CCN1C(=O)[C@H]2[C@@H](c3ccc(C)cc3)N[C@]3(CCCN(Cc4ccc(OC)cc4)C3=O)[C@H]2C1=O
    -6% | -1.0
COc1ccc(CN2C[C@H]3CON(C)[C@H]3C[C@H]2c2ccc(-c3cccc(F)c3)cc2)cc1
    0% | -2.3

Additional records follow.
Results follow in this order: Vif TR-FRET | AF4-AF9 inh
Cc1ccnc(NC(=O)CN2C(=O)NC(C)(c3ccc4ccccc4c3)C2=O)c1 (centres undefined)
    0% | -31
O=C1CCN(C(=O)Cc2ccccc2)c2ccccc21
    0% | -1.1
CC(=O)Nc1cccc(OCC(=O)Nc2cccc(S(=O)(=O)N3CCCC3)c2)c1
    2% | -0.5
CCOC(=O)N1CCN(CC(=O)Nc2nccs2)CC1
    -2% | -1.4
Cc1ccc(S(=O)(=O)N2CCN(CC(=O)NC(C)c3ccccc3)CC2)cc1 (centres undefined)
    -3% | 0.8
Cc1cccc(C(=O)OCC(=O)N(C)C(c2ccccc2)c2ccccc2)c1[N+](=O)[O-]
    4% | -1.9
CCCC(=O)N(Cc1cc2cc(OC)ccc2[nH]c1=O)c1ccc(OC)cc1
    -28% | -2.1
COc1cccc(NC(=O)CN(C)C(=O)/C=C/c2ccc(S(=O)(=O)N3CCCCCC3)cc2)c1
    -2% | 4.1
C[C@H]1CN([C@@H](C)CO)S(=O)(=O)c2ccc(Br)cc2O[C@@H]1CN(C)C(=O)c1cccnc1
    -3% | -0.2&-2.2
COc1ccc(O)c(C(=O)CC(=O)c2cccnc2)c1
    -2% | 3.7

Random excerpt: 6 entries already listed
Results follow in this order: Vif TR-FRET | AF4-AF9 inh
CC(=O)Nc1cccc(OCC(=O)Nc2cccc(S(=O)(=O)N3CCCC3)c2)c1
    2% | -0.5
COc1cccc(NC(=O)CN(C)C(=O)/C=C/c2ccc(S(=O)(=O)N3CCCCCC3)cc2)c1
    -2% | 4.1
O=C1CCN(C(=O)Cc2ccccc2)c2ccccc21
    0% | -1.1
Cc1cccc(C(=O)OCC(=O)N(C)C(c2ccccc2)c2ccccc2)c1[N+](=O)[O-]
    4% | -1.9
COc1ccc(O)c(C(=O)CC(=O)c2cccnc2)c1
    -2% | 3.7
CCCC(=O)N(Cc1cc2cc(OC)ccc2[nH]c1=O)c1ccc(OC)cc1
    -28% | -2.1

(list continues)
Results follow in this order: Vif TR-FRET | AF4-AF9 inh
C[C@@H]1CN([C@@H](C)CO)C(=O)CCCn2nncc2CO[C@H]1CN(C)S(=O)(=O)c1ccc(Oc2ccccc2)nc1
    -8% | 2.9&1.1
CC(=O)Nc1cccc2c1Cc1cc([N+](=O)[O-])ccc1-2
    -1% | 0.3
Cc1cccc(C)c1NC(=O)NS(=O)(=O)c1ccccc1
    2% | 1.3
CCOC(=O)c1c(CC(C)C)csc1NC(=O)COC(=O)c1cnc(C)cn1
    -4% | -4.5
O=C(c1ccccc1)c1cc(Cl)ccc1N1C(=O)C=CC1=O
    15% | 14
Cc1ccccc1C1CC(=O)c2ccccc2C1C (centres undefined)
    -6% | -1.8
CCOc1ccccc1N1C(=O)CC(Sc2ccccc2N)C1=O (centres undefined)
    -4% | -1.1
CC(=O)Nc1ccc2c(c1)[nH]c(=O)c1ccccc12
    -12% | -0.2
COc1cccc(C#Cc2ccc3c(c2)O[C@H](CN(C)C)[C@@H](C)CN([C@@H](C)CO)S3(=O)=O)c1
    0% | 7.6&10.0&12
Cc1ccccc1NC(=O)COC(=O)CC1CCCC1
    -5% | -2.8

Continued:
Results follow in this order: Vif TR-FRET | AF4-AF9 inh
CCOc1cc(/C=N/Nc2cccc(C(=O)O)c2)ccc1OCC(=O)N1CCCCC1
    6% | 2.1
COc1ccc(N2CSC(=S)N(c3ccc(OC)cc3)C2)cc1
    6% | 5.2
O=C1NC(=O)C2(N1)c1ccccc1-c1ccccc12
    0% | -1.1
CCc1ccc2c(COC(=O)C3CC(=O)N(CCc4ccccc4)C3)cc(=O)oc2c1 (centres undefined)
    -2% | 3.5
N#Cc1cn(Cc2ccco2)c(=O)[nH]c1=O
    1% | -1.9
CC1CCCCC1NC(=O)CCn1c(=S)[nH]c2ccccc2c1=O (centres undefined)
    -4% | 1.4
CCCCN1C(=O)C(CC(=O)NCCc2ccccn2)CC(C(=O)N(C)C)=C1C (centres undefined)
    2% | -2.8
COc1cc(C(=O)c2ccc3c(c2)OCO3)cc(OC)c1OC
    -7% | -4.4
COc1cccc(C(=O)C(CCC#N)c2ccccc2)c1 (centres undefined)
    -10% | -1.2
[O-]C(=C(C(=S)Nc1cccc2ccccc12)[n+]1cccc(CO)c1)c1ccc(Cl)s1
    4% | 6.7

Continued:
Results follow in this order: Vif TR-FRET | AF4-AF9 inh
Cc1ccc(NC2CNC(=O)NC2=O)cc1C (centres undefined)
    -5% | -6.0
O=C(Cc1ccccc1)NC(CSSCC(NC(=O)Cc1ccccc1)C(=O)O)C(=O)O (centres undefined)
    5% | -4.3
O=C(Cc1cccc(NC(=O)C2CCCN(C(=O)c3ccccc3)C2)c1)Nc1cccc(C(=O)N2CCOCC2)c1 (centres undefined)
    0% | -1.6
N#Cc1c(NC(=O)COC(=O)C2=COCCO2)sc2c1CCCC2
    5% | -0.6
COc1ccc([C@H]2C[C@@H](O)[C@H](n3cc(C4CC4)nn3)CN2C(=O)C2CCCCC2)cc1
    2% | -1.0
O=C(NCc1ccc(F)cc1)c1ccc(S(=O)(=O)N2CCCC2)cc1
    -7% | -1.3
COc1ccc(NS(=O)(=O)c2cc(N=Nc3c(O)[nH]c(=O)[nH]c3=O)ccc2OC)cc1Br
    10% | 1.9
CCCCn1c(N)c(N(CCOC)C(=O)CCCn2c(=O)oc3ccccc32)c(=O)[nH]c1=O
    6% | -0.1
Cc1ccc(S(=O)(=O)N(C)C[C@@H]2OCCCC[C@H](C)Oc3ccc(NC(=O)Nc4ccc(F)cc4)cc3C(=O)N([C@H](C)CO)C[C@H]2C)cc1
    3% | -1.5&-1.0
CC(=O)OC1CC2(C)C(C(C)=O)CCC2C2CCC3=CC(=O)CCC3(C)C12 (centres undefined)
    7% | -3.4

Next entries.
Results follow in this order: Vif TR-FRET | AF4-AF9 inh
O=C(Cn1cc2c(n1)CCCCC2)Nc1ccc(F)cc1F
    -1% | -4.3
O=C(C=Cc1cccc(Cl)c1)c1ccccc1
    -5% | 2.9
CN(Cc1ccccc1)C(=O)c1cccc(NC(=O)Cc2cccc(NC(=O)C3CCN(C(=O)C4CC4)CC3)c2)c1
    -10% | -3.0
NC1(C(=O)O)CCCCC1c1ccccc1 (centres undefined)
    0% | 2.4
CNc1nc(NC)c2cn[nH]c2n1
    0% | 3.5
C[C@@H]1CN([C@H](C)CO)C(=O)CCCn2nncc2CO[C@H]1CN(C)S(=O)(=O)c1cccc(F)c1
    0% | -0.5&0.9
COc1cccc(C#Cc2cnc3c(c2)C(=O)N([C@@H](C)CO)C[C@H](C)[C@H](CN(C)C(=O)C2CCC2)O3)c1
    -1% | 1.9&-0.4&-2.8
CN(C)CCNC(=O)c1cccc2ccc(-c3ccc(-c4ccccc4)cc3)nc12
    -7% | 5.7
CCN(C[C@H]1N[C@@](C)(C(=O)OC)[C@H]2C(=O)N(Cc3ccccc3)C(=O)[C@@H]12)C(=O)C1CCCCC1
    1% | -0.5
CCOC(=O)C1=CN(Cc2ccc(Br)cc2)S(=O)(=O)N(C)C1C (centres undefined)
    -4% | -2.4

Additional compounds
Results follow in this order: Vif TR-FRET | AF4-AF9 inh
CC(NC(=O)c1ccc(Cl)c(S(=O)(=O)NC2CC2)c1)c1ccco1 (centres undefined)
    -4% | -11
Nc1c(C(=O)CSc2nnnn2-c2ccc(O)cc2)c(=O)[nH]c(=O)n1C1CC1
    1% | 9.1
COc1ccccc1N1CCN(C(=O)c2cccc(S(=O)(=O)N3CCCCCC3)c2)CC1
    -3% | -4.0
O=C(CNC(=O)c1ccc(Br)o1)NNC(=O)c1ccccc1
    8% | -1.4
Cc1ccc(CC2(c3ccccc3)NC(=O)NC2=O)cc1 (centres undefined)
    -2% | -0.1
CC(C)[C@H](NC(=O)OCc1ccccc1)C(=O)OCC(=O)N1C(C)CCCC1C (some centres undefined)
    -8% | -6.2
FC(F)(F)c1nc2nc(Cl)c(Cl)nc2[nH]1
    4% | 0.7
O=C(CNC(=O)OCc1ccccc1)NC1(C(=O)O)CCCC1
    4% | -3.5
O=C1C(c2ccccc2)C2C=CC(C2)N1O (centres undefined)
    -1% | -0.1
NC(=O)c1cc(Sc2ccccc2)nc2ccccc12
    3% | -1.0

The list continues.
Results follow in this order: Vif TR-FRET | AF4-AF9 inh
CCN(CC)C(=O)[C@H]1C[C@H](CC(=O)NC/C=C(\C)CCC=C(C)C)C(=O)N2CCc3c([nH]c4ccc(Cl)cc34)[C@]12C
    -3% | 0.4
CC(=O)Nc1ccc(S(=O)(=O)NC(C)C(=O)NCC(c2ccco2)N(C)C)cc1 (centres undefined)
    10% | -8.9
O=C1NC(=O)C2(CCCCCC2)N1
    -5% | -10
COc1ccccc1N(C)S(=O)(=O)c1ccc(C(=O)Nc2ccc(C)cc2C)cc1
    -1% | 0.2
CCOc1ccc(C2OCCC(C)O2)cc1OC (centres undefined)
    -2% | -5.6
CCN(CC)S(=O)(=O)c1ccc(N2CC(C(=O)NCCc3c[nH]c4ccccc34)CC2=O)cc1 (centres undefined)
    0% | 0.6
O=C(CN1c2cccc3cccc(c23)S1(=O)=O)NCc1ccccc1Cl
    -14% | -3.0
Cc1cc(=O)[nH]c(NN=Cc2cc(Br)ccc2O)n1
    0% | 3.2
O=c1c2ccccc2oc2cc(Br)ccc12
    -6% | -3.3
COc1ccc(CN2CCC3CC2c2cc(Cl)ccc23)cc1 (centres undefined)
    -1% | 2.0
CC(C)NC(=O)N(C)C[C@H]1OCc2cnnn2CCCC(=O)N([C@H](C)CO)C[C@H]1C
    -6% | -1.6&1.1&2.3

These rows are one share of the data, so the mix of outcomes need not match the whole.
